Source: PubChem BioAssay (several laboratories)
KOR agonists: KOR agonists, beta-arrestin recruitment, primary screen, cell-based, luminescence, uHTS (AID 1777) | hit rate 0.02% among 280,000 | activation, % at 10 µM, or EC50 in µM where a hit was titrated | KOR beta-arrestin recruitment, luminescence; higher % means a stronger effect; in the data active = activation above about 50%, passing the limit was not always enough; note: a part of the inactive calls stands beside numbers as strong as those of hits
GPR35 arrestin U2OS: inhibition of zaprinast-stimulated GPR35 beta-arrestin translocation – imaging, U2OS, beta-arrestin-GFP, zaprinast agonist, primary screen (AID 2058). U2OS GPR35 beta-arrestin-GFP translocation imaging, zaprinast antagonism; higher % means a stronger effect. inhibition, % at 10 µM; hits with a dose series show IC50 in µM. hit rate 0.052% among 290,000;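 active = inhibition of at least 50% with at least 30 cells and total cytoplasm GFP at most 10,000,000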
Salmonella PhoP GFP: inhibitors of PhoP regulon expression, primary screen, Salmonella Typhimurium, GFP reporter (AID 1863). S. Typhimurium PhoP-regulated promoter GFP reporter, 4 h; higher % means a stronger effect. inhibition, % at 50 µM; hits with a dose series show IC50 in µM. hit rate 0.16% among 300,000;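 active = inhibition over 29.93%, a cutoff 3 SD above the screen mean, later confirmed by dose response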;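 note: 0% = low Mg2+ inducing control and 100% = high Mg2+ repressing control; strong numbers were not always called active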
NTR1 agonist: NTR1-driven beta-arrestin-GFP spot formation – imaging, U2OS cells, high content, primary screen (AID 493036). agonist mode. hit rate 0.17% among 330,000. activation, % at 20 µM;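 active = activation at or above 40% of the spot to cytoplasm intensity ratio, with at least 20 cells analyzed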;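 note: 0% = DMSO without peptide and 100% = 100 nM NTR1 peptide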
Target sequence (P30989 whole entry, looked up): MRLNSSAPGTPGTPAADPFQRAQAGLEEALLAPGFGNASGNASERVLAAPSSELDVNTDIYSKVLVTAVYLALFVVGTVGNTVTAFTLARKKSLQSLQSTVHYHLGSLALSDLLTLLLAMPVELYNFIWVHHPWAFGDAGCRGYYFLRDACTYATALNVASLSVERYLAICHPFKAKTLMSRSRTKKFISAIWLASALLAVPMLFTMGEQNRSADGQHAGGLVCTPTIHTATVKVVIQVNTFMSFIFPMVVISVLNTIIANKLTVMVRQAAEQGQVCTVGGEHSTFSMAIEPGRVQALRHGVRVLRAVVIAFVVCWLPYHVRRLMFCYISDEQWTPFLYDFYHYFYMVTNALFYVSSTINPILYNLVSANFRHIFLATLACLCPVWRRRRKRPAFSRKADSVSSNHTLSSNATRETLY
West Nile antiviral: West Nile virus antiviral activity, cell-based, CPE readout (AID 1621) | West Nile virus-infected cells, CPE inhibition; higher % means a stronger effect | CPE inhibition, % at 10 µM; hits with a dose series show IC50 in µM | hit rate 0.02% among 290,000; in the data active = a potency from the dose series; note: strong numbers were not always called active
T cell HTS: T cell immune modulation candidate; 2C CD8+ T cell-vesicle binding, flow cytometry; stronger effect = lower value; calls only at 7 µM; hit rate 0.068% among 330,000;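 active = response, share of CD8 T cells binding vesicles, and their 90th percentile fluorescence all below set limits, cut at about 80% in these data, passing the limit was not always enough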
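Assay system: 2C TCR transgenic mouse naive CD8+ T cells, MACS-purified | Read-out: CD8+ gate FL2 mean fluorescence as % of same-row positive control | Signal: High-throughput flow cytometry with anti-B7-1 and anti-CD8 staining | Timing: Binding step 1.5 h, 37 °C, antibody labelling 20 min, ice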
GPR55 LPI antagonism: inhibition of LPI-stimulated GPR55 beta-arrestin translocation – imaging, U2OS, beta-arrestin-GFP, LPI agonist, primary screen (AID 2013); U2OS GPR55 beta-arrestin-GFP translocation imaging, LPI antagonism; higher % means a stronger effect; inhibition, % at 10 µM; hits with a dose series show IC50 in µM; hit rate 0.13% among 290,000;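 active = spots per cell inhibited over 60%, with over 100 cells counted and total cytoplasm intensity under 500,000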;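 note: U2OS cells stably carrying GPR55 and arrestin-GFP stimulated by 5 µM LPI near EC80; imaged beta-arrestin-GFP aggregate spots per cell after agonist stimulation; plate controls were LPI-stimulated DMSO wells for no effect and DMSO wells without LPI for full effect; some results filed as inactive read as strong as hits; confirmed hits need IC50 under 10 µM and bright autofluorescent wells are also inconclusive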
GPR55 activation: selective activators of receptor GPR55 – imaging, U2OS cells, beta-arrestin-GFP redistribution, primary screen (AID 1961); U2OS GPR55 beta-arrestin-GFP redistribution imaging; higher % means a stronger effect; activation, % at 10 µM; hits with a dose series show EC50 in µM; hit rate 0.048% among 290,000;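 active = activation above 40% with more than 50 cells counted in the well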;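 note: U2OS osteosarcoma cells stably expressing GPR55 and beta-arrestin-GFP; plate controls were DMSO negative control for no effect and LPI positive control for full effect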
T cell HTS vesicle-bound %: second read-out of T cell HTS, no call of its own (marks repeat the call); double positive events, %; measured here: CD8+ vesicle-bound cell fraction;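 binding gate set so that unloaded-vesicle control wells show 10% double positive cells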
NTR1 agonist cell count 20 µM: further read-out of NTR1 agonist, marked with its call; cell count; measured here: cell count, cytotoxicity flag
An asterisk follows results filed as active; i = inactive; / = not tested or not shown.

#1 c1ccc(Cn2nnc3c(N4CCc5ccccc5C4)ncnc32)cc1
#2 CCN(CC)CCNC(=O)C1CCC(=O)N(c2ccc(OC)cc2)C1c1ccc(F)cc1 (configuration not stated)
#3 COc1ccc(Nc2nc(N)nc(CN(C)C3CCCCC3)n2)cc1
#4 Cc1ccc(SCC(=O)Nc2ccc(N3CCN(c4ccccc4)CC3)c(F)c2)cc1
#5 O=C1Nc2cc(C(=O)N3CCOCC3)ccc2SC1N1CCOCC1 (configuration not stated)
#6 Cc1occc1C(=O)NCc1ccccc1
#7 O=C1CSC(c2ccccn2)N1c1ccc2ccccc2c1 (configuration not stated)
#8 CCOC(=O)C1CCN(C(=O)C23CC4CC(CC(C4)C2)C3)CC1

screen / no.	1	2	3	4	5	6	7	8
T cell HTS	i	i	i	i	i	i	i	i
NTR1 agonist cell count 20 µM	72	66	70	80	66	40	86	48
GPR35 arrestin U2OS	7.9%	-9.2%	-2.0%	0.4%	15.5%	-2.7%	1.5%	16.8%
KOR agonists	16.2%	-4.3%	-1.0%	4.0%	2.8%	4.2%	3.4%	-1.1%
T cell HTS vesicle-bound %	7.8	30.1	5.5	47.2	47.6	48.2	31.5	48.9
NTR1 agonist	7.0	0.5	1.6	-0.4	-1.1	0.4	-1.0	-1.5
Salmonella PhoP GFP	0.7%	-3.2%	13.9%	-1.3%	-2.2%	0.8%	0.6%	4.4%
GPR55 activation	4.9%	-0.1%	-0.1%	-0.1%	-0.1%	-0.1%	-0.1%	-0.1%
West Nile antiviral	0.0%	0.1%	-0.6%	1.2%	/	0.0%	-1.1%	0.0%
GPR55 LPI antagonism	-10.6%	34.2%	/	16.2%	3.4%	11.9%	20.0%	24.5%

#9 COc1cc(OC)nc(Oc2ccccc2C(=O)Oc2ccc(C)cc2)n1
#10 O=C(Nc1cccc(Cl)c1)OCc1cn(-c2ccc(Cl)cc2)nn1
#11 Cc1ccc2c(n1)CC(C)(C)CC2=O
#12 Cc1sc(NC(=O)CN2CCOCC2)c(C(=O)c2ccccc2)c1C
#13 Cc1ccccc1NCC(=O)N/N=C/C(Br)=C/c1ccccc1
#14 Cc1nc(N2CCN(c3ccccc3)CC2)[nH]c(=O)c1Cc1cccc2ccccc12
#15 COc1cccc(C2CC(C(F)(F)F)n3ncc(C(=O)NC(C)(C)C)c3N2)c1 (configuration not stated)
#16 Cc1ccc(NC(=O)CSc2nnc(Cn3cnc4ccccc43)o2)c(C)c1

screen / no.	9	10	11	12	13	14	15	16
T cell HTS	i	i	i	i	i	i	i	i
NTR1 agonist cell count 20 µM	61	85	96	74	40	66	78	78
GPR35 arrestin U2OS	-3.9%	18.4%	-7.2%	-1.9%	-3.1%	-2.4%	6.0%	0.7%
KOR agonists	-1.4%	-2.8%	0.3%	4.7%	1.5%	3.6%	2.5%	1.6%
T cell HTS vesicle-bound %	64.8	24.5	27.4	29.2	24.9	25.4	67.1	18.5
NTR1 agonist	0.1	3.4	-0.3	1.1	2.2	2.1	2.2	-0.8
Salmonella PhoP GFP	3.4%	-2.8%	-0.1%	1.7%	-5.7%	-10.3%	1.3%	-3.9%
GPR55 activation	0.0%	-0.1%	-0.1%	0.2%	-0.2%	-0.1%	-0.1%	-0.2%
West Nile antiviral	-0.3%	/	-0.1%	-1.7%	-0.7%	/	-0.8%	-0.2%
GPR55 LPI antagonism	-10.2%	-9.1%	6.4%	5.4%	4.5%	-2.7%	6.2%	-6.7%

#17 O=C(NC(Cc1c[nH]c2ccccc12)c1nnc2n1CCCCC2)c1ccccc1 (configuration not stated)
#18 CCN(CC)C(=O)C(=O)N/N=C/c1cccs1
#19 Cc1nn(C)c(Oc2ccc(Cl)cc2)c1C(=O)Nc1ccc(F)cc1F
#20 COc1ccccc1CCN1C(=S)NC(C)(C)CC1(C)O (configuration not stated)
#21 CCOC(=O)c1cnc2c(N=Nc3cccc(Cl)c3)c(N)nn2c1N
#22 Cc1ccc(OCCNC(=O)/C=C/c2ccc([N+](=O)[O-])cc2)cc1C
#23 O=C(O)CCc1nn2c3ccccc3nc2n(CCN2CCCCC2)c1=O
#24 COc1ccc(/C=C/C(=O)NCc2c(C)nn(C)c2C)cc1COc1ccc(Br)cc1

screen / no.	17	18	19	20	21	22	23	24
T cell HTS	i	i	i	i	/	i	i	i
NTR1 agonist cell count 20 µM	46	53	63	67	/	94	40	58
GPR35 arrestin U2OS	8.2%	-9.2%	2.6%	13.6%	0.2%	-1.4%	13.8%	-0.6%
KOR agonists	3.5%	3.8%	-1.6%	0.5%	0.6%	2.8%	0.7%	3.2%
T cell HTS vesicle-bound %	12.3	35.0	43.8	41.1	/	43.4	38.4	28.9
NTR1 agonist	3.3	-0.4	1.7	1.6	/	-0.4	-0.3	4.8
Salmonella PhoP GFP	1.1%	-1.8%	-1.0%	2.6%	-7.4%	-4.8%	0.0%	-0.6%
GPR55 activation	-0.1%	-0.1%	-0.3%	-0.1%	0.0%	-0.1%	0.3%	0.0%
West Nile antiviral	-0.5%	0.5%	-1.0%	-0.2%	0.1%	-0.6%	0.2%	1.0%
GPR55 LPI antagonism	5.0%	24.2%	22.9%	13.5%	11.3%	2.4%	11.7%	14.0%

#25 Cc1ccc(-n2c(Cc3cccn3C)nnc2SCC(=O)N2CCc3ccccc32)cc1
#26 COCc1cc(C)nc(OCC(=O)N/N=C/c2ccc(-c3cccc([N+](=O)[O-])c3)o2)c1C#N
#27 Cc1cccc(-n2c(C)cc(/C=N/n3cnnc3)c2C)c1
#28 CCCCCNCc1ccc(Br)cc1
#29 N#CC1=C(N)Oc2c(oc(CO)cc2=O)C12C(=O)Nc1ccc(Cl)cc12 (configuration not stated)
#30 O=C(NCC1CCCO1)C1CCN(S(=O)(=O)N2CCCC2)CC1 (configuration not stated)
#31 CCc1ccc(NCCC(=O)c2ccc(Cl)cc2)cc1
#32 CCOC(=O)Cn1nc(C)n(-c2ccc(C(C)(C)C)cc2)c1=O
#33 Cc1n[nH]c(=S)c2nn(-c3ccccc3)c(C)c12

screen / no.	25	26	27	28	29	30	31	32	33
T cell HTS	i	i	i	i	i	i	i	i	/
NTR1 agonist cell count 20 µM	84	70	35	53	79	48	49	95	/
GPR35 arrestin U2OS	1.1%	7.9%	-9.5%	2.0%	10.8%	-2.7%	0.8%	-20.1%	3.6%
KOR agonists	3.0%	-0.3%	-0.2%	5.5%	7.2%	3.8%	2.0%	0.0%	0.0%
T cell HTS vesicle-bound %	48.6	66.9	43.9	20.7	33.1	23.7	34.0	53.5	/
NTR1 agonist	2.5	-1.7	0.0	-1.0	-2.2	0.8	0.3	-2.9	/
Salmonella PhoP GFP	-3.8%	6.3%	0.1%	-9.7%	-7.9%	4.3%	-3.4%	-3.3%	1.9%
GPR55 activation	-0.1%	0.0%	-0.1%	-0.1%	1.8%	-0.1%	0.6%	-0.1%	-0.1%
West Nile antiviral	0.9%	/	1.1%	-1.2%	0.1%	0.1%	0.0%	-0.1%	/
GPR55 LPI antagonism	1.5%	21.6%	-6.2%	10.8%	10.4%	23.3%	9.4%	2.1%	24.5%

Of the compounds above, 10 contain sulfur:
#4 Cc1ccc(SCC(=O)Nc2ccc(N3CCN(c4ccccc4)CC3)c(F)c2)cc1
#5 O=C1Nc2cc(C(=O)N3CCOCC3)ccc2SC1N1CCOCC1 (configuration not stated)
#7 O=C1CSC(c2ccccn2)N1c1ccc2ccccc2c1 (configuration not stated)
#12 Cc1sc(NC(=O)CN2CCOCC2)c(C(=O)c2ccccc2)c1C
#16 Cc1ccc(NC(=O)CSc2nnc(Cn3cnc4ccccc43)o2)c(C)c1
#18 CCN(CC)C(=O)C(=O)N/N=C/c1cccs1
#20 COc1ccccc1CCN1C(=S)NC(C)(C)CC1(C)O (configuration not stated)
#25 Cc1ccc(-n2c(Cc3cccn3C)nnc2SCC(=O)N2CCc3ccccc32)cc1
#30 O=C(NCC1CCCO1)C1CCN(S(=O)(=O)N2CCCC2)CC1 (configuration not stated)
#33 Cc1n[nH]c(=S)c2nn(-c3ccccc3)c(C)c12

screen / no.	4	5	7	12	16	18	20	25	30	33
T cell HTS	i	i	i	i	i	i	i	i	i	/
NTR1 agonist cell count 20 µM	80	66	86	74	78	53	67	84	48	/
GPR35 arrestin U2OS	0.4%	15.5%	1.5%	-1.9%	0.7%	-9.2%	13.6%	1.1%	-2.7%	3.6%
KOR agonists	4.0%	2.8%	3.4%	4.7%	1.6%	3.8%	0.5%	3.0%	3.8%	0.0%
T cell HTS vesicle-bound %	47.2	47.6	31.5	29.2	18.5	35.0	41.1	48.6	23.7	/
NTR1 agonist	-0.4	-1.1	-1.0	1.1	-0.8	-0.4	1.6	2.5	0.8	/
Salmonella PhoP GFP	-1.3%	-2.2%	0.6%	1.7%	-3.9%	-1.8%	2.6%	-3.8%	4.3%	1.9%
GPR55 activation	-0.1%	-0.1%	-0.1%	0.2%	-0.2%	-0.1%	-0.1%	-0.1%	-0.1%	-0.1%
West Nile antiviral	1.2%	/	-1.1%	-1.7%	-0.2%	0.5%	-0.2%	0.9%	0.1%	/
GPR55 LPI antagonism	16.2%	3.4%	20.0%	5.4%	-6.7%	24.2%	13.5%	1.5%	23.3%	24.5%

Complete entries from above. Values in the order: T cell HTS | NTR1 agonist cell count 20 µM | GPR35 arrestin U2OS | KOR agonists | T cell HTS vesicle-bound % | NTR1 agonist | Salmonella PhoP GFP | GPR55 activation | West Nile antiviral | GPR55 LPI antagonism
Listed for `CCOC(=O)Cn1nc(C)n(-c2ccc(C(C)(C)C)cc2)c1=O` : i | 95 | -20.1% | 0.0% | 53.5 | -2.9 | -3.3% | -0.1% | -0.1% | 2.1%
Listed for `CCCCCNCc1ccc(Br)cc1` : i | 53 | 2.0% | 5.5% | 20.7 | -1.0 | -9.7% | -0.1% | -1.2% | 10.8%

The list is partial; the hit share may differ from the screen's.
